# Rango dissoc inh: inhibition of RanGTP-driven Rango-importin beta dissociation; 340,000 tested, 0.071% active; Biochemical FRET Rango-importin beta, RanGTP-induced dissociation; Potency, µM (top dose mostly 46.1 µM), for inactives: top-dose activity change, negative = inhibition; active means falling FRET ratio curve, often poorly fitted, with flat reads before Ran was added; inconclusive means other falling curves, or compound fluorescence or quenching; inactive means flat or rising ratio curve;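 note: potency is the fitted concentration of half-maximal effect; % of control where 0% means no effect; nearly all actives have a fitted effect of over 45% in size; -100% = wells without RanGTP and RCC1; the record marks most hits as doubtful in a second field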
#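 Rango (0.1 uM)–importin beta (0.25 uM) complex; RanGTP-RCC1 trigger; 45 min RT; CFP/YFP FRET read.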
# miR-21 reporter: miR-21 reporter, rising signal; HeLa miR-21 FLuc reporter, luciferase, 48 h; Potency, µM (doses to about 38.3 µM), for inactives: at the highest dose reporter change, positive = more light; 340,000 tested, under 10 active; AID 2288; active = well fitted rising curve with a large enough effect; inconclusive = small, poorly fitted or top-dose-only effect; inactive = no such curve, though single readings can be large or run the other way;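 note: % of control where 0% means no effect; miR-21 action dims this reporter so a rising signal means less miR-21 action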
#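 HeLa miR-21-FLuc reporter line, endogenous miR-21; 2000 cells/well in DMEM/10% FBS; compound titration up to ~40uM final, 48 h, 37 degree Celsius; luciferase detection reagent, 15 min lysis, CCD luminescence.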
# Rango complex inh: inhibitors of Rango-importin beta complex formation; Q14974; Rango CFP/YFP FRET sensor + importin beta, 45 min; Potency, µM (highest dose often 92.2 µM), inactives show at the highest dose inhibition of complex formation; 340,000 tested, 0.031% active; active = rising FRET ratio curve, often small or poorly fitted; inconclusive = mostly compound fluorescence or quenching in the first reads; inactive = flat curves in all reads;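 note: potency is the fitted concentration of half-maximal effect; 0% = DMSO wells and 100% = buffer wells lacking importin beta; nearly all actives have a fitted effect of over 15% in size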
# Target sequence (Q14974 whole entry, looked up): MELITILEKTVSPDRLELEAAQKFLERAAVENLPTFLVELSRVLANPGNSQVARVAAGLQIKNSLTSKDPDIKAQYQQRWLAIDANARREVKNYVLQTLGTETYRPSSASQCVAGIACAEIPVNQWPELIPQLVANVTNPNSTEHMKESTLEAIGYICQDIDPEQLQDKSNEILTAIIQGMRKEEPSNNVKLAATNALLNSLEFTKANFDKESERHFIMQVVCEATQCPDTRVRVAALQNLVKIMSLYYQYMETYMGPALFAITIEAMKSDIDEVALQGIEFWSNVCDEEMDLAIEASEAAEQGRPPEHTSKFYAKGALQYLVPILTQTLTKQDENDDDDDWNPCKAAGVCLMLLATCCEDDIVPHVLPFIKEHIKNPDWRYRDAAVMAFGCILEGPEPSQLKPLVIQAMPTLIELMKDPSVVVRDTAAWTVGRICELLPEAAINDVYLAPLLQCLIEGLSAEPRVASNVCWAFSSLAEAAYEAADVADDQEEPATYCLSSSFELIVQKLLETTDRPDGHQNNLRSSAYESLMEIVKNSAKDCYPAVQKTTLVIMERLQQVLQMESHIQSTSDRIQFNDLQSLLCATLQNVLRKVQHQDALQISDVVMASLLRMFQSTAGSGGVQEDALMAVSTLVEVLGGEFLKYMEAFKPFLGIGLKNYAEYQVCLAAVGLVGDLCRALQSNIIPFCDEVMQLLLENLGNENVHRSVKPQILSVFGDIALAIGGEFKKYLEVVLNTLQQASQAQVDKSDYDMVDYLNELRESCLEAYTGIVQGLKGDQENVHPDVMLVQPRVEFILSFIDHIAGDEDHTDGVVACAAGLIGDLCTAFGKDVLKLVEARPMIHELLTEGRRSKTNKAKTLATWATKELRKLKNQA
#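 Inhibition scored from the CFP 486 nm/YFP 530 nm FRET ratio 45 min after adding 0.125 microM importin beta to 50 nM Rango biosensor preincubated 5 min with compound (room temperature, PBS with DTT, Tween-20, BSA). No-importin wells as positive control.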
# GLA inh pH 4.5: blocks human alpha-galactosidase A at pH 4.5; P06280; purified enzyme, 4-MU-alpha-Gal fluorescence, pH 4.5; activity change, negative = inhibition, % at 105 µM; 230,000 tested, under 10 active; inconclusive = small, poorly fitted or top-dose-only inhibition, or a rising curve; inactive = flat fitted curve, though single readings scatter; no compound was filed as active;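 note: 0% = full activity with enzyme and -100% = basal without enzyme; dose as in the result columns while the protocol names 77 µM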
# Starred values were filed as active, the others as inactive; ? = inconclusive; nt = not tested or not shown; & = joins results of further samples.
Rango dissoc inh | miR-21 reporter | Rango complex inh | GLA inh pH 4.5 | structure
-11% | -7% | -3.8% | -3 | O=C(CC1NCCNC1=O)Nc1cccc([N+](=O)[O-])c1 (stereo not given)
2% | 1% | 1.7% | nt | NC(=O)c1oc2ccccc2c1NC(=O)CS(=O)(=O)c1ccccc1
4% | 8% | 6.1% | 8 | O=C(Nc1cccc(S(=O)(=O)N2CCOCC2)c1)C1CCCN(C(=O)c2ccc(Cl)cc2)C1 (stereo not given)
-6% | -21% | -3.4% | -5 | Cc1ccccc1-n1c(SCC(=O)NC(N)=O)nc2sc(-c3ccccc3)cc2c1=O
-13% | -7% | 0.8% | -2 | Cc1ccc(NC(=O)C(c2ccccc2)N(C)C)cc1Cl (stereo not given)
10% | -1% | -5.2% | nt | COC(=O)C1CN(C(=O)C(C)Oc2ccccc2Cl)c2ccccc2O1 (stereo not given)
8% | 0% | -1.7% | -17 | CC(=O)N1CCN(c2ccc(NC(=O)c3ccc(OCc4ccccc4)cc3)cc2)CC1
4% | -10% | 1.1% | 0 | O=C(COC(=O)c1cccs1)NCCN1C(=O)CSC1=O
-10% | 1% | ? | 7 | COc1ccc(OC)c(/C=C/C(=O)OCC(=O)Nc2cccc(C(C)=O)c2)c1
-2% | -7% | 5.5% | -9 | C=CCN1C(=O)C(Cc2ccc(F)cc2)S/C1=N/N=C/c1ccco1 (stereo not given)
-3% | 1% | 4.2% | 8 | COc1ccccc1N1CCN(C(=O)C2CCN(S(=O)(=O)c3ccccc3)CC2)CC1
2% | -6% | 0.7% | -2 | COC(=O)c1ccc(-c2ccc(C(c3c(C)[nH][nH]c3=O)c3c(C)[nH][nH]c3=O)o2)cc1
17% | 13% | 2.3% | nt | O=C(Nc1ccc(Cc2nc3ccccc3s2)cc1)c1ccncc1
-6% | -1% | -1.6% | 4 | Cn1c(SCC(=O)N2CCCC2)nc2cccnc21
1% | -7% | 0.7% | 1 | COc1cc(C)c(NC(=S)Nc2ccc(C)c(Cl)c2)cc1OC
-2% | 3%&3% | -4.6% | -7 | CCCN1CCCc2cc(CN(CCCN3CCOCC3)C(=O)Nc3ccc(OCC)cc3)ccc21
-15% | 2% | 1.2% | nt | COC(=O)C1=C(N)OC2=C(C(=O)CCC2)C1c1ccc2c(c1)OCO2 (stereo not given)
-12% | -4% | -3.6% | -11 | N#Cc1c2n(c3c(=O)n(Cc4ccc(Cl)cc4)cnc13)CCCCC2
-2% | 1% | 4.4% | 5 | NC(=O)CC(NC(=O)Cc1ccc(Cl)cc1)c1ccc(NCCc2ccccc2F)c([N+](=O)[O-])c1 (stereo not given)
0% | ? | -1.3% | -10 | O=C(NCCOc1ccc(F)cc1)c1ccccc1SCc1ccccc1
? | -5% | ? | nt | CN(C)c1oc(/C=C/c2cccs2)nc1S(=O)(=O)c1ccccc1
3% | -9% | -2.6% | 5 | CC1=C(C(=O)Nc2ccccc2C)C(c2cccs2)NC(=S)N1 (stereo not given)
0% | -3% | 0.2% | 0 | Cc1[nH]c(=O)cc2ccccc12
18% | 3% | 2.4% | 4 | CCCCNCC#CCOc1cc(C)ccc1C(C)C
25% | -5% | 2.8% | 0 | CCc1ccccc1NC1=NCC(=O)N1Cc1ccccc1
? | 1% | ? | 13&0 | COC(=O)CCCC1=CC2=C(c3ccccc3)C(=O)C(C)(OC(=O)C3CCCC3)C(=O)C2=CN1CC1CC1 (stereo not given)
15% | -3% | 0.7% | 3 | CCOC(=O)C1CCCN(Cc2nc(Cc3ccccc3Cl)no2)C1 (stereo not given)
-11% | -9% | 2.8% | nt | COc1ccc(-c2noc(C(C)NC(=O)c3ccco3)n2)cc1OC (stereo not given)
25% | -3% | 0.6% | 1 | CCNCc1ccccc1OCc1ccccc1
2% | -1% | 0.6% | nt | COc1ccccc1N(C(=O)c1snc(C(N)=O)c1N)C(C(=O)NCc1ccccc1)c1ccc(C)o1 (stereo not given)
6% | -12% | -4.8% | nt | Cc1cccnc1CC(C)NC(=O)c1cc(COc2cncc(Cl)c2)on1 (stereo not given)
-2% | -13% | -2.4% | 2 | OC(CNCc1ccccc1)c1ccccc1 (stereo not given)
8% | -2% | ? | -4 | CC(=O)Oc1ccc2c(c1)cc(C)n2C
9% | -3% | 0.1% | 3 | COc1ccc(CC2(CO)CCN(S(=O)(=O)N(C)C)CC2)cc1
-3% | -1% | 0.6% | 5 | CCOc1ccccc1NC(=O)CN(c1cc(C)cc(C)c1)S(=O)(=O)c1c(C)noc1C
4% | -8% | 5.5% | 2 | CCn1c(SCc2ccc(Cl)cc2)nc2nc3c(cc2c1=O)CCCC3
2% | nt | 5.8% | nt | O=C1C2CC=CCC2C(=O)N1c1nccs1 (stereo not given)
? | -14% | 0.2% | -7 | CC(=O)OC[C@H]1O[C@@H](n2ccc(=O)[nH]c2=S)C(OC(C)=O)C1OC(C)=O (stereo not given in full)
20% | -2% | -3.0% | nt | Cc1nc(NCc2ccc(S(N)(=O)=O)cc2)c2c(C)c(C)sc2n1
9% | -2% | 2.5% | nt | Cc1ccc(S(=O)(=O)N/N=C\c2ccc([N+](=O)[O-])o2)cc1C
-3% | -3% | 2.8% | -12 | CCc1cc(C(=O)c2ccc(OC)cc2)c(NC(=O)CN2CCCC2)s1
-1% | 2% | -0.9% | nt | CCCc1cc(=O)oc2cc(C)cc(OCC(=O)Nc3ccccn3)c12
-4% | -11% | 4.8% | 4 | CC(=O)Nc1cccc(OCCCOc2ccc([N+](=O)[O-])cc2)c1
23% | nt | 3.8% | nt | COc1ccccc1N1CCN(C(=O)CSc2nnc(C)n2C2CC2)CC1
-3% | 0% | 2.7% | -10 | O=C(O)Cn1cnc2c(=S)nc[nH]c21
-4% | 0% | 0.1% | nt | O=C(Nc1ccc(C(=O)O)cc1)/C(=C\c1ccccc1)NC(=O)c1ccco1
-11% | 7% | ? | -5 | Cc1ccc(-c2csc3nc(CN(C)Cc4ccccc4)[nH]c(=O)c23)cc1
-8% | -8% | -2.1% | -2 | O=C(OCCNc1ncc(C(F)(F)F)cc1Cl)c1ccc(S(=O)(=O)N2CCOCC2)cc1
-7% | -8% | 0.2% | -7 | CN(C(=O)c1ccc2c(c1)C(=O)N(CCC1=CCCCC1)C2=O)C1CCCCC1
30% | 1% | -0.1% | 6 | Cn1c(=O)c2c(nc(Sc3ncnn3CC(=O)NC(C)(C)C)n2C)n(C)c1=O
8% | -10% | -3.1% | -1 | Cn1cnnc1SCc1cccc(Br)c1
6% | -41% | 2.5% | nt | O=C(CNS(=O)(=O)c1ccccc1)N1CCc2ccccc2C1
-10% | -6% | 1.5% | -6 | Cc1ccc(S(=O)(=O)N2CCN(C(=O)C3COc4ccccc4O3)CC2)cc1C (stereo not given)
1% | -7% | -2.3% | 8 | O=C(c1ccc(Br)o1)N1CCN(Cc2ccc3c(c2)OCO3)CC1
-25% | -3% | -0.6% | ? | CC(C)CN(Cc1c(O)ccc2c3c(c(=O)oc12)CCC3)CC(C)C
8% | 10% | 3.4% | -5 | Cc1cc(C)c2nc(Cl)c(CN(Cc3ccco3)C(=O)Nc3ccccc3C)cc2c1
8% | -23% | -0.5% | nt | O=C(O)c1ccccc1C(=O)Nc1c(-c2ccccc2)nc2ccccn12
28% | nt | -1.4% | nt | O=C(Cc1ccccc1F)N1CCN(S(=O)(=O)c2ccc(Cl)cc2)CC1
1% | 1% | ? | nt | CC(=O)Nc1nnc(SCC(=O)NCc2ccc3c(c2)OCO3)s1
-21% | -4% | -1.7% | -4 | CCOC(=O)c1oc2ccccc2c1NC(=O)C(C)(C)C

# Next part:
Rango dissoc inh | miR-21 reporter | Rango complex inh | GLA inh pH 4.5 | structure
-7% | -2% | 0.8% | nt | CC(=O)c1cccc(NC(=O)/C(=C\c2cccnc2)NC(=O)c2ccc(C)cc2)c1
-7% | 25% | -0.1% | -2 | CCC(C)C(=O)Nc1nc(C)c(-c2csc(Nc3cc(Cl)ccc3OC)n2)s1 (stereo not given)
4% | -10% | -4.6% | nt | CC1CCCCN1S(=O)(=O)c1ccc2c(c1)CCN2C(=O)C1CC1 (stereo not given)
0% | 5% | 0.7% | nt | CCOc1cccc2sc(N(CCN(C)C)C(=O)c3ccc4c(c3)OCCO4)nc12
5% | -2% | -5.1% | 2 | COc1ccccc1/C=C/C(=O)OCC(=O)NNC(=O)c1ccccc1
-7% | -21% | -0.9% | nt | CCN(Cc1cnn(C)c1)C(=O)c1cc(COc2cc(C)c(Cl)c(C)c2)on1
-18% | 7% | 3.0% | -12 | CS(=O)(=O)N1CCN(c2ccccc2NC(=O)CSc2ccc(Cl)cc2)CC1
-5% | 0% | 1.6% | 6 | COc1ccccc1NCC(=O)NNC(C)C(=O)Nc1cccc(Cl)c1 (stereo not given)
? | -19% | ? | -5 | COc1ccc(/C=N\Nc2ccc([N+](=O)[O-])cc2)c(C(=O)O)c1OC
18% | 17% | 2.4% | nt | Cc1cc(C)cc(NC(=O)C2CCN(S(=O)(=O)c3ccc4c(c3)NC(=O)C(C)S4)CC2)c1 (stereo not given)
13% | -61% | 0.1% | 10 | O=C(Nc1ccc2c(c1)OCCO2)C1CC1c1ccccc1 (stereo not given)
-7% | 0% | 0.8% | 2 | Cc1cccc(NC(=O)c2nc(-c3ccccc3)n(-c3ccccc3)n2)c1C
0% | 0% | 3.1% | -5 | CC1(C)CC(=O)C(C(=O)/C=C/c2ccco2)C(=O)C1
12% | ? | -2.9% | nt | Cc1cc2nc(-c3ccc[nH]c3=O)[nH]c2cc1C
-5% | -16% | 7.3% | -3 | CCOC(=O)c1c(NC(=O)CSc2nc3ccccc3o2)sc(C)c1C

# Three successive compounds already listed:
Rango dissoc inh | miR-21 reporter | Rango complex inh | GLA inh pH 4.5 | structure
0% | 0% | 3.1% | -5 | CC1(C)CC(=O)C(C(=O)/C=C/c2ccco2)C(=O)C1
12% | ? | -2.9% | nt | Cc1cc2nc(-c3ccc[nH]c3=O)[nH]c2cc1C
-5% | -16% | 7.3% | -3 | CCOC(=O)c1c(NC(=O)CSc2nc3ccccc3o2)sc(C)c1C

# Remaining list, next part.
Rango dissoc inh | miR-21 reporter | Rango complex inh | GLA inh pH 4.5 | structure
9% | 1% | 1.1% | 4 | CC(=O)Nc1ccc(S(=O)(=O)Nc2cccc(-c3nc4ccccc4o3)c2)cc1
-6% | -64% | -0.5% | 1 | Cc1cc(O)c(C(=O)Cc2csc(C)n2)c(O)c1
-5% | -1% | -9.4% | 12 | COCCn1cc(C(=O)NCCCN2CCC(C)CC2)c2c3ccccc3n(C)c2c1=O
14% | nt | -3.8% | nt | CC(=O)N1N=C(c2ccc(NS(=O)(=O)c3ccccc3)cc2)CC1c1ccco1 (stereo not given)
-8% | 0% | -1.2% | 0 | Cc1cc(C)nc(Nc2n[nH]c(C)n2)n1
-6% | 13% | ? | nt | CC(=O)c1cccc(NC(=O)c2ccc(CN3CCc4ccccc4C3)cc2)c1
1% | -8% | 2.3% | -3 | O=C(CCSCCC(=O)Nc1ccccc1F)Nc1ccccc1F

# Structural class: the compounds so far containing two or more sulfur atoms (10)
Rango dissoc inh | miR-21 reporter | Rango complex inh | GLA inh pH 4.5 | structure
-6% | -21% | -3.4% | -5 | Cc1ccccc1-n1c(SCC(=O)NC(N)=O)nc2sc(-c3ccccc3)cc2c1=O
4% | -10% | 1.1% | 0 | O=C(COC(=O)c1cccs1)NCCN1C(=O)CSC1=O
? | -5% | ? | nt | CN(C)c1oc(/C=C/c2cccs2)nc1S(=O)(=O)c1ccccc1
3% | -9% | -2.6% | 5 | CC1=C(C(=O)Nc2ccccc2C)C(c2cccs2)NC(=S)N1 (stereo not given)
20% | -2% | -3.0% | nt | Cc1nc(NCc2ccc(S(N)(=O)=O)cc2)c2c(C)c(C)sc2n1
1% | 1% | ? | nt | CC(=O)Nc1nnc(SCC(=O)NCc2ccc3c(c2)OCO3)s1
-7% | 25% | -0.1% | -2 | CCC(C)C(=O)Nc1nc(C)c(-c2csc(Nc3cc(Cl)ccc3OC)n2)s1 (stereo not given)
-18% | 7% | 3.0% | -12 | CS(=O)(=O)N1CCN(c2ccccc2NC(=O)CSc2ccc(Cl)cc2)CC1
18% | 17% | 2.4% | nt | Cc1cc(C)cc(NC(=O)C2CCN(S(=O)(=O)c3ccc4c(c3)NC(=O)C(C)S4)CC2)c1 (stereo not given)
-5% | -16% | 7.3% | -3 | CCOC(=O)c1c(NC(=O)CSc2nc3ccccc3o2)sc(C)c1C

# Compound activity (PubChem)

# The list is partial; the hit share may differ from the screen's.
